Bioassay records from PubChem.
AID923: qHTS Assay for Allosteric/Competitive Inhibitors of Caspase-1: Spectroscopic Profiling in AFC Spectral Region; compound fluorescence, AFC spectral region (405/520 nm); almost no hit is shown here; Potency, µM (top dose mostly 57.5 µM), inactives show top-dose fluorescence increase, actives largely listed as activators; 75,000 tested, 1.1% active; AID 923, 2007; active = well fitted activation curve with a large enough effect; inconclusive = small, poorly fitted or top-dose-only effect;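 note: potency is the fitted concentration of half-maximal effect; 0% is about no effect; scaled to a free AFC standard on each plate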
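Compound autofluorescence profiled at 405 nm ex/520 nm em during kinetic caspase 1 run (50 nM enzyme, 5 uM Ac-WEHD-AFC, HEPES pH 7.5, 10 mM DTT). Titration up to 57 uM; baseline from regression intercept, normalized to AFC standard curve.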
TSHR ag: qHTS Assay for Agonists of the Thyroid Stimulating Hormone Receptor; HEK293-CNG-TSHR cells (CNG channel as cAMP sensor), membrane potential dye, cAMP; Potency, µM (top dose mostly 57.1 µM), without a hit: top-dose activation, usual class: activators; 73,000 tested, 0.48% active; AID 926, 2007; active = well fitted activation curve of enough size with the parental cells flat; inconclusive = any curve in the parental cells; inactive = parental cells flat and receptor cells flat or falling; note: potency is the fitted concentration of half-maximal effect; % of control where 0% means no effect; weak receptor curves with flat parental cells got no call and are not listed
Target sequence (P16473 whole entry, looked up): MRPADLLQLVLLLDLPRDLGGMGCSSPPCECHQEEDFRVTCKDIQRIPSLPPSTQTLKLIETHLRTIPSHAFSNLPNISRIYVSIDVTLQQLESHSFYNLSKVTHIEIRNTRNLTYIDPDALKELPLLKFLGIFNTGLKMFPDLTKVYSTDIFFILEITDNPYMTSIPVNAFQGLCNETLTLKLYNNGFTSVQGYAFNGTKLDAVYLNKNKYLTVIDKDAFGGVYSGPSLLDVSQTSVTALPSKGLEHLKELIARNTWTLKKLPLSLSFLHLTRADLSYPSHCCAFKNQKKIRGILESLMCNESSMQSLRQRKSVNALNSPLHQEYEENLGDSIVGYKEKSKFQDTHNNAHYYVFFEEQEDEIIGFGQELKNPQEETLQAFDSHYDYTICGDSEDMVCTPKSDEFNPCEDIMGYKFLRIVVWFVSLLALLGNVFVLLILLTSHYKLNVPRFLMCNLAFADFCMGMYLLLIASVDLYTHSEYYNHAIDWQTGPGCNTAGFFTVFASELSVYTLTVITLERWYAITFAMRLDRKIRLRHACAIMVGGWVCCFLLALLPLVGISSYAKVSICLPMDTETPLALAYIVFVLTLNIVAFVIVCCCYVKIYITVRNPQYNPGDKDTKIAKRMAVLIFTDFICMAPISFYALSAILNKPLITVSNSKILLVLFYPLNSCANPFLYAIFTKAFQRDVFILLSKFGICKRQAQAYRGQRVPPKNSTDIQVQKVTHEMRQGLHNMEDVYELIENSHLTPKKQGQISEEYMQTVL
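HEK 293 cells stably expressing TSHR and a modified CNG channel, with CNG-only parental cells as counterscreen, were preloaded 60 min at room temperature with membrane potential dye containing 100 uM RO 20-1724. Compound exposure was 30 min, and depolarization was read as fluorescence at 590 nm.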
Resorufin autofl: qHTS Assay for Spectroscopic Profiling in Resorufin Spectral Region; max dye-equivalent concentration, M; Compound fluorescence, resorufin region 547/598 nm, buffer; stronger effect = higher value; 59,000 tested, 0.04% active; active = above 10 nM dye equivalent; inconclusive = 1 to 10 nM; inactive = 1 nM or less; a few of its hits are not listed in these tables; note: highest value over a series up to 38 µM
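Compounds in 100 mM Tris buffer, pH 8.0, incubated 15 min at room temperature, then read with 547 nm excitation and 598 nm emission filters. Fluorescence was converted to dye-equivalent concentration using an on-plate six-point resorufin standard curve.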
A488 autofl: qHTS Assay for Spectroscopic Profiling in A488 Spectral Region. 59,000 tested, 0.1% active. AID 591, 2007. max dye equivalency, M. compound autofluorescence, A488 spectral region, dye equivalency; stronger effect = higher value; active = above 10 nM dye equivalent; inconclusive = 1 to 10 nM; inactive = 1 nM or less; about half of its hits are not listed in these tables;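 note: highest value over a series up to 38 µM; compound alone in buffer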
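Spectroscopic profiling in the A488 region: compounds in pH 8.0 Tris (100 mM), 15 min RT, CCD imaging with 480 nm excitation and 540 nm emission; responses normalized against A488 dye standards.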
A647 fluor: qHTS Assay for Spectroscopic Profiling in A647 Spectral Region | 59,000 tested, under 10 active | AID 592, 2007 | Compound fluorescence, A647 channel (570/671 nm), Tris buffer | max dye-equivalent concentration, M; active means above 1 µM dye equivalent; inconclusive means 0.1 to 1 µM; inactive means 0.1 µM or less;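 note: values scaled relative to a standard on each plate; highest value over a series up to 38 µM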
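Compounds pinned into 100 mM Tris pH 8.0, 15 min at room temperature, then read with 570 nm excitation/671 nm emission filters. Fluorescence normalized to an on-plate six-point Alexa 647 standard curve, giving dye-equivalent concentration per compound concentration.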
Starred values were filed as active, the others as inactive; i = inactive; ? = inconclusive; . = no result given; & = joins results of further samples; [ ] = dose if it differs, or a comment. An excerpt (hit frequency here may not be typical).

molecule,AID923,TSHR ag,Resorufin autofl,A488 autofl,A647 fluor
CCOC(=O)c1c(NC(=O)CSc2nnc(-c3cccnc3)o2)sc(C)c1C,0.9%,?,i,i,1e-09
CN(C)S(=O)(=O)c1cccc(C(=O)NCCc2ccccc2)c1,0.8%,-4%,i,i,4e-09
CCN(c1nc(N)c(C(=O)N=C(N)N)nc1Cl)C(C)C,-2.1%,.,i,i,1e-09
COc1ccc(Cl)cc1S(=O)(=O)NCc1cccs1,0.0%,?,i,i,3e-08
COCCNC(=O)NC1(C(F)(F)F)Oc2ccc(Cl)cc2O1 (stereo not drawn),0.7%,-9%,i,i,4.4e-09
CC(C)NC[C@@H](O)c1ccc(O)c2ncccc12,0.3%[11.5 µM],-1%[11.4 µM],i,i,2.3e-08
CCOC(=O)c1c(P(=O)(N2CCOCC2)N2CCOCC2)noc1N,-0.2%,0%,i,i,1.6e-08
O=C(c1ccccc1F)N1CCN(S(=O)(=O)c2ccc(S(=O)(=O)N3CCCCC3)cc2)CC1,-3.0%,9%,i,i,1e-09
CCOc1ccc(C(=O)Nc2c3c(nn2-c2cccc(Cl)c2)CS(=O)C3)cc1 (stereo not drawn),0.7%,?,i,i,1.5e-08
CCCN(CCC)S(=O)(=O)c1ccc(NS(C)(=O)=O)cc1,-0.9%,8%,i,i,4.7e-09
COc1cc(CNC2CCCC2)cc(OC)c1OC,6.7%,-2%,i,i,1e-09
CCOc1ccc2nc(S(N)(=O)=O)sc2c1,.,.,i,i,1e-09
CC(=O)N(C)c1ccc(NS(=O)(=O)Cc2ccccc2)cc1,5.7%,5%,.,.,.
CCc1nnc(NC(=O)CSc2nnc(Cc3cccn3C)n2C)s1,4.8%,-13%,.,.,.
CCCCNc1nc(C)nc2c1nc(-c1ccccc1)n2CC1CCCN1CC (stereo not drawn),-4.2%,?,.,.,.
O=c1c(-c2cc(F)cc(F)c2)nc2cncnc2n1C1CC1,3.6%,?,i,i,1e-09
CN1/C(=C\C(=O)CN2C(=O)NC3(CCCCCC3)C2=O)C(C)(C)c2ccccc21,1.1%,9%,i,i,4e-09
COC(=O)COc1ccc2occ(C(C)=O)c2c1,2.7%,-2%,.,.,.
COc1cc2c(=O)n(Cc3ccco3)c(=O)n(CC(=O)c3cccc(Br)c3)c2cc1OC,-1.1%,16%[11.4 µM],i,i,1e-09
CCN(CC)S(=O)(=O)c1ccc2c(c1)nc(SCc1nc3ccsc3c(=O)[nH]1)n2CC,-2.4%,?,i,i,1.1e-08
O=S1(=O)CC(O)C(N2CCC(c3ccccc3)CC2)C1 (stereo not drawn),-1.1%,0%,i,i,1.3e-08
O=C(COC(=O)c1ccc(S(=O)(=O)NCc2ccco2)cc1)Nc1ccccc1OC(F)F,-0.5%,.,i,i,3e-08
Cc1oc(-c2ccccc2F)nc1CN1CCC(C(=O)NCc2cccs2)CC1,0.5%,.,i,i,1e-09
C=CCn1c(=O)c2ccccc2n2c(SCc3nnc(-c4ccccc4Br)o3)nnc12,-0.4%,5%,i,i,2.5e-09
CO[C@@H]1COC(=O)C/C=C\[C@@H](C)[C@@H]2C=C[C@H](O)[C@@H](COC(=O)CCC[C@H]1C)O2,0.9%[11.5 µM],-3%[11.4 µM],.,.,.
Cc1ccc(C2N(c3nccs3)C(=O)C3CCCN32)cc1 (stereo not drawn),0.2%,4%,i,i,1e-09
N#Cc1c(NC(=O)CSc2ncnc3sccc23)oc(-c2ccco2)c1-c1ccco1,1.3%,12%,i,i,7.7e-09
CN1C(=S)SC(C)(C)C1NO (stereo not drawn),0.0%,3%,i,i,1e-09
O=C(CP(=O)(c1ccccc1)c1ccccc1)Nn1cnnc1,-1.1%,1%,.,.,.
COc1ccc(Oc2ncc3ncc(=O)n(-c4ccc(OC)cc4)c3n2)cc1,1.9%,-2%,i,i,5.1e-09

Following part:
molecule,AID923,TSHR ag,Resorufin autofl,A488 autofl,A647 fluor
CC1(C)NC(=O)N(CCCSc2ccc(Cl)cc2)C1=O,-1.9%,0%,i,i,1.3e-09
CN1CCc2cc3c(c4c2C1CC41CCC(=NO)CC1)OCO3 (stereo not drawn),17%,9%,i,i,1e-09
CCOC(=O)c1c(NC(=O)c2cccs2)sc(C)c1C,4.7%,15%,i,i,1.2e-08
Cc1ccc2[nH]c(=O)c(COC(=O)c3ccccn3)cc2c1,0.6%,5%,i,i,1e-09
Cc1ccc2c(c1)-c1cc(C)nn1C(c1ccc3c(c1)OCO3)N2 (stereo not drawn),-2.9%,4%,i,i,5.5e-09
O=C(O)CCc1ccc(-c2cccs2)n1-c1ccc(C(=O)O)cc1,-0.5%,-4%,.,.,.
C=CC[C@@H]1C=C[C@H](O/N=C(\C)CCN2CCc3nc(CC)c(CC)cc3C2)[C@H](CO)O1,4.0%[11.5 µM],-6%[11.4 µM],.,.,.
Cc1cc(=O)oc2cc(O)c(CN(C)CC(=O)O)cc12,19%[11.5 µM],9%[11.4 µM],i,i,1e-09
CCN(CC)C(=O)CSc1nnc(-c2cnccn2)n1-c1ccc(C)cc1,0.4%,0%,i,i,1.5e-08
C=CCN1CN(S(=O)(=O)c2cccs2)c2nc3ccccc3nc21,2.3%,.,i,i,1e-09
COc1ccc(C2CC(c3ccccc3C)n3nc(N)nc3N2)cc1 (stereo not drawn),1.0%,?,.,.,.
CCOC(=O)CC(=O)CSc1nc(-c2cccnc2)cc(C)c1C#N,6.9%,5%,i,i,2.5e-08
COC(=O)C1Cc2c([nH]c3ccccc23)C(C)N1 (stereo not drawn),5.1%,?,i,i,8.7e-09
Cc1ccc(CN2CCSc3ccc(C(=O)N4CCN(c5ncccn5)CC4)cc32)cc1,-1.2%,25%,i,i,4.3e-08
COc1ccc(-n2ccnc2SCC(=O)Nc2ccc(OC)cc2OC)cc1,2.8%,?,i,i,1.4e-08
O=C(Cn1nnc(-c2ccc(Cl)cc2)n1)NC1CCN(Cc2ccccc2)CC1,-0.7%,5%,i,i,6.5e-09
COCCOC(=O)C1=C(N)OC2=C(C(=O)CCC2)C1c1cccnc1 (stereo not drawn),0.7%,5%,i,i,1.5e-08
CCCCC/C=C/C=C/C=O,2.2%,?,.,.,.
COc1cccc2cc(C(=O)N(C)C3CCN(C)CC3)c(=O)oc12,0.1%,1%,i,i,1.4e-09
O=C(Nc1ccc(F)cc1)c1cc(S(=O)(=O)N2CCCCC2)cs1,-1.9%,11%,.,.,.
O=C(CN1C(=O)c2ccccc2C1=O)NCc1ccccn1,.,.,i,i,2.6e-08
O=C(O)c1ccc(SSc2ccc(C(=O)O)cn2)nc1,-0.5%[11.5 µM],2%[11.4 µM],i,i,3.5e-08
COc1ccccc1CN1C(=O)c2ccncc2C1=O,-0.2%,.,i,i,1.4e-08
CCOC(=O)Cc1csc(NC(=O)CN(C)S(=O)(=O)c2ccc3c(c2)CCC(=O)N3)n1,1.1%,2%,.,.,.
Cc1cc(C(=O)OCC(=O)N2CC(C)CC(C)C2)c(C)o1 (stereo not drawn),-1.7%,4%,i,i,4.3e-08
COc1cccc(NC(=O)c2ccncc2)c1,0.9%,3%,.,.,.
O=C(NCCc1ccccc1)c1ccc(Br)o1,-0.9%,2%,.,.,.
COC(=O)C/C=C\[C@@H](C)[C@@H](/C=N\O[C@@H](C)c1cn([C@H](CO)Cc2ccccc2)nn1)OC,-0.2%&-1.2%[11.5 µM],1%&4%[11.4 µM],.,.,.
O=C(NCc1ccc2c(c1)OCO2)c1c(F)c(F)c(F)c(F)c1F,0.5%,13%,i,i,2.4e-08
CC1CCCC(C)N1CCCNC(=O)c1cc2c(=O)n(C)c3ccccc3c2n1C (stereo not drawn),3.4%,10%,.,.,.

Overlap with the part before: two entries; new compounds follow.
molecule,AID923,TSHR ag,Resorufin autofl,A488 autofl,A647 fluor
O=C(NCc1ccc2c(c1)OCO2)c1c(F)c(F)c(F)c(F)c1F,0.5%,13%,i,i,2.4e-08
CC1CCCC(C)N1CCCNC(=O)c1cc2c(=O)n(C)c3ccccc3c2n1C (stereo not drawn),3.4%,10%,.,.,.
COc1ccc(N2CCN(S(=O)(=O)c3ccc(C(=O)NC4CCCC4)cc3)CC2)cc1,2.2%,-3%,i,i,1e-09
COc1cccc(OCCSc2nnc3sc4ccccc4n23)c1,-0.6%,?,i,i,1.8e-08
COCCn1c(C)cc(C(=O)CN2C(=O)NC3(CCCCCCC3)C2=O)c1C,0.0%,-3%[11.4 µM],i,i,5.9e-09
CC(=O)Nc1nc(C)nc(-c2ccccc2)c1C(C)=O,-0.5%,-12%,i,i,1e-09
COc1ccccc1N1CCN(C(=O)c2cnn3cccnc23)CC1,-0.3%,1%,i,i,2.4e-09
Cc1cc(NC(=O)Cc2cccs2)nn1CC(=O)NCc1ccco1,0.3%,?,i,i,1e-09
COc1cc(C)c(S(=O)(=O)NC2CC(C)(C)NC(C)(C)C2)cc1C,-1.3%,13%,i,i,2e-08
COc1ccc(C)cc1S(=O)(=O)N(C)CC(N)=O,1.5%,4%,i,i,2.3e-08
Cc1ccc(NC(=O)CSCC(=O)O)c(C)c1,-0.8%,3%,i,i,1.3e-08
CCn1c(SCC(=O)c2ccccc2)nc2c(c1=O)SC(C)C2 (stereo not drawn),0.4%,?,i,i,2.1e-08
COCCN1C(=O)c2ccccc2C(C(=O)N2CCN(c3ccccn3)CC2)C1c1ccc(F)cc1 (stereo not drawn),-0.3%,14%,i,i,4.9e-09
CC1Cn2c(nc3c2c(=O)[nH]c(=O)n3C)O1 (stereo not drawn),-0.7%,1%,i,i,1.2e-08
Cc1nc2nc[nH]n2c(=O)c1CCC(C)C,1.9%,6%,i,i,2.6e-08
Clc1cc(Cl)c2nc(N3CCCC3)sc2c1,-1.4%,-2%,i,i,4.7e-08
CCNS(=O)(=O)c1ccc(NC(=O)Nc2cccc(OC)c2)cc1,2.8%,.,i,i,2.8e-08
Cc1cc2ncn(CC(=O)O)c2cc1C,-0.9%[11.5 µM],2%[11.4 µM],i,i,1e-09
O=C(Nc1ccc(O)cc1)c1cc2n(n1)C(C(F)(F)F)CC(c1ccco1)N2 (stereo not drawn),0.0%,-7%,i,i,1e-09
O=C(NCCC1=CCCCC1)c1ccc(Br)o1,-1.4%,?,i,i,2.7e-08
Cc1cc(C)nc(N2CCCC(C(=O)NC3CCCC3)C2)n1 (stereo not drawn),-0.9%,?,i,i,3.4e-08
CCOC(=O)c1c(C)[nH]c(NC(=O)N2CCOCC2)c1C,-0.1%,-1%,i,i,1e-09
c1ccc(SCc2nc3ccccc3[nH]2)nc1,.,.,i,i,3.9e-09
COCCNC(=O)COc1cc(=O)n(C)c2ccccc12,0.5%,2%,i,i,1.8e-08
CCCC(=O)NCCSC,-0.1%,4%,.,.,.
CN(C)C(=O)c1ccc(-c2cncnc2-n2ccnc2)cc1,0.6%,?,i,i,2.9e-08
COc1cccc(CNC(=O)CCCNS(=O)(=O)c2cccs2)c1,-1.7%,-4%,i,i,8.4e-09
Cc1nn(Cc2ccccc2)c2sc(C(=O)N3CCN(Cc4ccc5c(c4)OCO5)CC3)cc12,0.7%,17%,i,i,4.1e-09
